Compound activity as filed in PubChem BioAssay.
Sa growth inh: inhibitors of Staphylococcus aureus growth at 42 °C | S. aureus RN4220 growth, OD600, 20 h; stronger effect = lower value | relative growth, % (no concentration beside the values) | actives 0.53% (n = 170,000);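 active means growth at 42 °C up to 50% and 20 or more points under that at 30 °C, or under 10% at both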;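 further: 300 nL library stock went into each well; scaled to the means of positive and negative controls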
HCMV UL50-53 inh: cytomegalovirus nuclear egress complex inhibition; HTRF UL50-UL53 interaction, normalized percent inhibition; inhibition, % (test concentration not listed); actives 0.15% (n = 190,000); AID 1918969;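 active means both replicates at 50% or more, plus weaker picks with an unusually low signal ratio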;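 further: stock transfer was 100 nL into about 20 µL; 0% = negative control wells and 100% = wells with untagged competitor protein; inactives centre near -12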
GIV-Gai inh: inhibitors of GIV GBA-motif binding to rat Galpha-i3; P08753; Galpha-i3/FITC-GIV peptide fluorescence polarization, 90 min; stronger effect = lower value; scaled: aluminum fluoride 0%, vehicle 100%; percent of control (FP), % (test concentration not listed); actives 0.42% (n = 210,000); AID 1224905;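 active means replicate mean at 85% of control or lower, very high polarization wells dropped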;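 further: wells of about 15 µL received 100 nL stock; the first replicate is given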
Target sequence (P08753 whole entry, looked up): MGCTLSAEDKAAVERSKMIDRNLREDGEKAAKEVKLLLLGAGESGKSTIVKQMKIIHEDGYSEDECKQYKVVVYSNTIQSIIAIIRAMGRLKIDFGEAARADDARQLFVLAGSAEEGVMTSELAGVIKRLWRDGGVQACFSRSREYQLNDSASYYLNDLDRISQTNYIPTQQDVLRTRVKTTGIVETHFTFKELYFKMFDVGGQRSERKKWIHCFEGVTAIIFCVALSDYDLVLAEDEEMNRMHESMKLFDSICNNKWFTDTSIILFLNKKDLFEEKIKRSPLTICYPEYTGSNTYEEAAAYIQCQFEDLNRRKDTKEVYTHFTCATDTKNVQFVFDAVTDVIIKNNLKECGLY
Sa growth inh second temp: further read-out of Sa growth inh, marked with its call; relative growth, %; measured here: growth at 30 °C;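 optical density after 20 h as mean of two plates; 100% = untreated growth and lower means inhibition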
Numbers without * were called inactive; nt = no result given; & = joins results of further samples.

Preview:
SMILES	Sa growth inh	Sa growth inh second temp	HCMV UL50-53 inh	GIV-Gai inh
COc1ccc(Cl)cc1NC(=O)c1ncn(-c2ccccc2)n1	114	100	2&-10	110&93
Cc1ccc(-c2nnc3c4cnn(Cc5ccccc5)c4ncn23)cc1	107	82	-23	99

All compounds of this part, from the start:
SMILES	Sa growth inh	Sa growth inh second temp	HCMV UL50-53 inh	GIV-Gai inh
COc1ccc(Cl)cc1NC(=O)c1ncn(-c2ccccc2)n1	114	100	2&-10	110&93
Cc1ccc(-c2nnc3c4cnn(Cc5ccccc5)c4ncn23)cc1	107	82	-23	99
CCN1CCN(C(=O)C(NS(=O)(=O)c2ccc3nc(C)sc3c2)C(C)C)CC1 (stereo unspecified)	84	89	-4	100
Cn1c(C(=O)O)cc2cc(Cl)ccc21	110	94	-3	109
Cn1cccc1CNCCN1CCOCC1	99	97	-6	102
CC1CCC(NC(=O)C2(C)Cn3c(cc4sccc43)C(=O)N2C2CCCC2)CC1 (stereo unspecified)	nt	nt	-12	97
N=C1C(c2ccccc2)=C(O)CN1CC1CCCO1 (stereo unspecified)	91	104	-1	104
Cc1c(C(=O)NN)sc2nc3n(c(=N)c12)CCC3	77	84	-19	100
CCCC(C)NC(=O)c1cnc2sc3c(n2c1=O)CCCC3 (stereo unspecified)	nt	nt	-20	104
CN(CCO)C(=O)c1ccc(-c2nn(C)c(=O)c3ccccc23)cc1	90	97	nt	103
CC1(C)Cc2c(C#N)c(SCC(=O)c3ccc(Br)cc3)nc(N3CCOCC3)c2CO1	nt	nt	2	100
Fc1ccc(Cc2cn3cc(-c4ccc(Cl)cc4)nc3s2)cc1	88	90	-20	104
COC(=O)c1cccc(NC(N)=O)c1	80	87	-21	nt
Cc1nc2ccccc2c(=O)n1-c1ccc(NC(=O)c2ccccc2[N+](=O)[O-])cc1	130	83	nt	96
CC1(C)C(=O)N(CC(=O)Nc2ccccc2Cl)c2ccccc21	nt	nt	-28	97
CCOc1ccc(NC(=O)CSc2ccc(-c3sc(-c4ccccc4)nc3C)nn2)cc1	97	85	nt	107
C=CCc1ccc(OC(C)C(=O)NC(=O)NC)c(OC)c1 (stereo unspecified)	96	89	10	nt
COc1ccccc1C1=NS(=O)(=O)N(C)C(C(=O)N2CCCCC2C)=C1 (stereo unspecified)	nt	nt	-32	104
COC(=O)c1sccc1NC(=O)Cn1ccn2nc(-c3ccc(C)cc3)cc2c1=O	nt	nt	-16	99
CC1C(O)C(C)C(c2ccccc2)N(C)C1c1ccccc1 (stereo unspecified)	102	100	7	105
CC(CCc1ccccc1)NC(=O)CSc1nc2nc[nH]c2c(=O)[nH]1 (stereo unspecified)	nt	nt	-17	105
Cc1[nH]c(=O)[nH]c1CN1CCCCC1	123	94	-2	96
COCCOC(=O)C1=C(C)NC2=C(C(=O)CC(c3ccc(Cl)cc3)C2)C1c1ccc(OC)c(Br)c1 (stereo unspecified)	nt	nt	-16	102
CCc1ccccc1OC(=O)c1ccc2c(c1)OCO2	122	95	-28	nt
COc1ccc(CN=C(Nc2ccccc2)SC2CC(=O)N(C)C2=O)cc1 (stereo unspecified)	106	86	-8	nt
CCCCN(CC)C(=O)Cn1ncc2c3ccccc3n(C)c2c1=O	108	102	4	103
Cc1cccc(C(C)C)c1NC(=O)C1CCCN1S(=O)(=O)c1cccc2nsnc12 (stereo unspecified)	97	80	-100	104
Cc1cccc(Cn2c(CN3CCC(C(=O)NCc4cccnc4)CC3)cc3ccccc32)c1	106	48	nt	98&100
COc1ccccc1NC(=O)c1ccc2oc(=O)c(S(=O)(=O)c3ccccc3)cc2c1	100	84	-40	91
Cc1ccc(NC(=O)Cn2c(C)cc(C)c(-c3nc(-c4ccc(Cl)cc4)no3)c2=O)c(Cl)c1	nt	nt	-13	109
COc1ccc(OCC(O)CN2CCN(C)CC2)cc1 (stereo unspecified)	90	113	-1	nt
Cc1ccc(C(=O)c2cn(Cc3cc(C)ccc3C)c3nc(C)ccc3c2=O)cc1	93	93	-1	105
S=c1[nH]nc(CN2CCOCC2)n1-c1ccccc1	102	83	4	nt
CCN1C(=O)C(C(=O)NC(C)c2ccccc2)C2CC1(C)Oc1ccccc12 (stereo unspecified)	108	73	3	99
O=c1c2cccnc2nc(SCc2ccc(F)cc2)n1Cc1ccc(F)cc1	nt	nt	10	92
Cc1ccc(NC(=O)Cn2ncc3c4ccccc4n(Cc4ccccc4)c3c2=O)cc1	81	86	-2	100
Cc1c(CNC2CCCCC2)c(C(=O)O)c(C)n1Cc1ccccc1F	116	95	-10	102
CC1CCCC(C)N1CC(O)Cn1cc(/C=N/NC(=O)c2ccncc2)c2ccccc21 (stereo unspecified)	81	87	-20	nt
COc1ccc([N+](=O)[O-])cc1N1C(=O)C2C3C=CC(CC3)C2C1=O (stereo unspecified)	nt	nt	-23	100
CCS(=O)(=O)c1ccc2oc(SCc3cn4ccccc4n3)nc2c1	99	85	-11	nt
O=C(NCC(c1ccc(F)cc1)N1CCOCC1)c1ccc(Br)o1 (stereo unspecified)	68	92	2	nt
COc1ccc(-c2nn(-c3ccccc3)cc2C2CC(c3cccs3)=NN2C(=O)CCC(=O)O)cc1 (stereo unspecified)	nt	nt	-43	101
Cc1ccc(-n2nc(CO)c(C(=O)NC(C)c3ccccc3)n2)cc1C (stereo unspecified)	97	98	-1	99
CCCCn1cc(/C=N/NC(=O)c2cc3cc(OC)ccc3n2C)c2ccccc21	90	84	-23	100
CC[N+](CC)(CC(=O)Nc1c(C)cccc1C)Cc1ccccc1	90	87	-39&10	nt
CCOc1ccccc1N(CC)C(=O)c1noc2c1COc1ccc(C)cc1-2	94	98	nt	101
Cc1cc(C)n(CCCNC(=O)CSc2nc(C)c(C)n2C2CCCCC2)n1	115	94	-12	nt
CCc1ccc(C(=O)OCC(=O)N2CCCc3ccccc32)cc1	118	88	-14	nt
CC1=NN(c2ccccc2)C(=S)/C1=C\N1CCCCC1	73	92	6	nt
O=C(Nc1ccccc1)n1nccc1-c1cc(-c2ccccc2)no1	94	96	-8	101
COc1ccc(OC)c(CCNC(=O)C2CCCN(c3ncnc4onc(C)c34)C2)c1 (stereo unspecified)	89	98	-8	106
C[C@H](NS(=O)(=O)c1ccccc1)C(=O)Nc1ccc(S(=O)(=O)N2CCCC2)cc1	102	94	-11	nt
COc1ccc2cc3c(nc2c1)N(C(=O)c1ccccc1Br)CC3	nt	nt	-16	109
CNS(=O)(=O)c1ccc2c(c1)oc(=O)c1cc(S(=O)(=O)NC)ccc12	86	102	nt	93
O=C(c1ccco1)N(Cc1nc(-c2ccccc2)no1)C1CCCCC1	105	77	nt	104
Cc1cc(C)c2oc(C(=O)N3CCN(c4cccc(Cl)c4)CC3)cc(=O)c2c1	107	80	-8	92
CCOC(=O)C(C#N)=C1SC2CS(=O)(=O)CC2S1 (stereo unspecified)	119	72	-14	101
Cc1cc(C)c2[nH]c(=O)cc(C(=O)O)c2c1	101	84	nt	105
O=C(Cn1c(=O)c2c(ncn2Cc2ccccc2)n(Cc2ccccc2)c1=O)NC1CC1	93	92	-28	nt
CC(C)N(C(=O)N1CCC(c2ccccc2F)CC1)C(C)C	112	85	1	103
New compounds follow:
SMILES	Sa growth inh	Sa growth inh second temp	HCMV UL50-53 inh	GIV-Gai inh
CN(C(=O)Cc1csc(NC(=O)Nc2cccc(Cl)c2)n1)c1ccccc1	nt	nt	-19	109
CC(=O)N1c2ccc(S(=O)(=O)N(C)Cc3ccco3)cc2CC1C (stereo unspecified)	110	83	-25	100
CC1=C(C(=O)NN)Sc2ccccc2N1	101	85	-20	99
CC(C)C(C)(C#N)NC(=O)CSc1nnc(SCc2ccc(Cl)cc2)s1 (stereo unspecified)	83	92	-8	nt
CCCN(CCC)CCCNC(=O)c1nn(C)c2c1CS(=O)(=O)c1ccccc1-2	88	89	1	117
COCC(=O)Nc1cccc(C(F)(F)F)c1	52	70	-4	102
CN(NS(=O)(=O)c1ccc(C(F)(F)F)cc1)c1cnn(C)c(=O)c1Cl	93	81	-29	108
CCCC(=O)Nc1nc(-c2ccc(F)cc2)ns1	nt	nt	-9	107
O=C1N(c2ccc(-c3ccccc3)cc2)C(c2ccc(F)cc2)N2CCCN12 (stereo unspecified)	nt	nt	-11	96
O=C(COC(=O)c1ccccc1)Nc1ccc2c(c1)OCO2	110	73	-5	101
COc1ccc(Nc2cc(C)c3cc(NC(=O)Cc4ccc(Cl)cc4)ccc3n2)cc1	87	98	nt	103
O=C(Nc1cccc(Cl)c1)NC1CCN(C2CCCCC2)C1 (stereo unspecified)	84	57	-9	nt
CCOc1ccc(N(Cc2nc3nc(C)cc(=O)n3[nH]2)S(=O)(=O)c2ccc(Cl)cc2)cc1	nt	nt	-20	106
CCN(Cc1ccccc1)C(=O)CSc1nc(C)c(Cl)c(C)c1C#N	110	96	2	nt
O=C1OC(c2ccccc2)C(O)(c2ccccc2)C12CCCCC2 (stereo unspecified)	89	78	nt	91

Already shown: entries from further up.
SMILES	Sa growth inh	Sa growth inh second temp	HCMV UL50-53 inh	GIV-Gai inh
CN(C(=O)Cc1csc(NC(=O)Nc2cccc(Cl)c2)n1)c1ccccc1	nt	nt	-19	109
CC(=O)N1c2ccc(S(=O)(=O)N(C)Cc3ccco3)cc2CC1C (stereo unspecified)	110	83	-25	100
CC1=C(C(=O)NN)Sc2ccccc2N1	101	85	-20	99
CC(C)C(C)(C#N)NC(=O)CSc1nnc(SCc2ccc(Cl)cc2)s1 (stereo unspecified)	83	92	-8	nt

Remaining list, next part
SMILES	Sa growth inh	Sa growth inh second temp	HCMV UL50-53 inh	GIV-Gai inh
O=C(O)C1C2C=CC3(CN(Cc4ccccc4)C(=O)C13)O2 (stereo unspecified)	100	96	-5	98
CCCCCC1C(O)CCC1CC(=O)NN (stereo unspecified)	86	79	-24	109
Cn1c(=O)oc2cc(NC(=O)c3cc4ccccc4[nH]3)ccc21	nt	nt	-25	94
COc1ccc(Oc2cc3c(cc2NS(=O)(=O)c2cccc(OC)c2)n(C)c(=O)c(=O)n3C)cc1	nt	nt	15	104
COCCn1nnc2cc(S(=O)(=O)N3CCCCC3C(=O)NCc3ccc(C)cc3)ccc21 (stereo unspecified)	nt	nt	-15	107
O/N=C/c1cc(C(F)(F)F)cc(C(F)(F)F)c1	114	99	-2	104
CCOC(=O)C1=C(C)N=c2s/c(=C\c3ccc(OC)cc3)c(=O)n2C1c1cc(OC)ccc1OC (stereo unspecified)	nt	nt	-16	106
Cc1ccc(-c2cc(C(=O)N3CCN(c4ccc(N5CCOCC5)nn4)CC3)[nH]n2)c(C)c1	nt	nt	-31	100
Cc1ccc(C)c(Cn2c(SCC(=O)N(C)Cc3ccccc3)nc3ccccc32)c1	85	87	nt	106
O=P(c1ccccc1)(c1nc2ccccc2s1)N1CCCCC1 (stereo unspecified)	71	84	-18	nt
O=C(O)C1Cc2ccccc2CN1C(=O)CSc1nnc2ccccn12 (stereo unspecified)	95	98	0	nt
Cc1nc(Nc2ccc(NS(=O)(=O)c3ccc(F)cc3)cc2)cc(N(C)C)n1	nt	nt	-13	96
CC(=O)Nc1nc(CSc2nnnn2-c2ccc(Cl)cc2)cs1	108	99	-11	nt
Cc1c(C(=O)N(CC(F)(F)F)C(C)C2CC2)oc2c(F)cccc12 (stereo unspecified)	109	103	3	nt
COc1ccc(C2CC(=O)N(c3cccc(F)c3)C(=O)C2)cc1	nt	nt	-36	102

The closing 2 compounds of the section above are carried over, then new ones follow.
SMILES	Sa growth inh	Sa growth inh second temp	HCMV UL50-53 inh	GIV-Gai inh
Cc1c(C(=O)N(CC(F)(F)F)C(C)C2CC2)oc2c(F)cccc12 (stereo unspecified)	109	103	3	nt
COc1ccc(C2CC(=O)N(c3cccc(F)c3)C(=O)C2)cc1	nt	nt	-36	102
CCOC(=O)c1cnc2ccc(C(=O)OC)cc2c1NCc1cccnc1	96	89	-9	109
O=C1C(=O)N(C2CCN(C(=O)c3ccccc3F)CC2)CCN1Cc1cccc(F)c1	nt	nt	-12	100
Cc1ccc(C(CCNC(=O)c2cccs2)c2ccco2)cc1 (stereo unspecified)	99	76	-8	103
Cc1cc(C)c2oc(-c3ccc(N)cc3O)nc2c1	99	83	-6	nt
O=C(N=CNC(=O)c1cccnc1)c1cccnc1	89	81	-18	nt
CCN(CCCNC(=O)c1ccc(Sc2ccc(Cl)cc2)c(NC(C)=O)c1)c1ccccc1	144	98	nt	109
O=C(CCn1c(=O)c2ccccc2n(CC(=O)Nc2ccc(F)cc2)c1=O)NCCc1ccccc1	104	90	-21	104
ClCc1cc(-c2ccccc2)on1	nt	nt	-16	100
NC(=O)CSc1nn2c(=O)c(Cc3ccccc3)nnc2s1	nt	nt	-24	97
CCc1nnc(NC(=O)CC2CC3CCC2C3)s1 (stereo unspecified)	100	104	-12	106
COc1ccc(CN2C(=O)C(F)(F)C2c2cccc(Cl)c2)cc1 (stereo unspecified)	71	99	0	nt
COc1cc(/C=C2\Sc3ccccc3C2=O)c(Br)cc1OCc1ccccc1	nt	nt	14	110
CCOC(=O)c1[nH]c2ccccc2c1CCC(=O)O	nt	nt	-36	98
CCn1nc(C(=O)N2CCCSC2=Nc2ccccc2)c2ccccc2c1=O	98	94	-5	nt
COc1ccc(CNC(=O)C2CCN(S(=O)(=O)c3ccc4c(ccn4C)c3)CC2)cc1	103	81	-13	101
